VDR inhibitor: vitamin D3 receptor (human) inhibition; P11473; VDR-SRC2-3 peptide fluorescence polarization, 2 h; Potency, µM, without a hit: max response, negative = inhibition, usual class: inhibitors; actives 0.93% (n = 400,000); AID 504847; active means well fitted inhibition curve with a large enough effect; inconclusive means small, poorly fitted or top-dose-only effect, or another doubt; inactive means no such curve, though single readings can be large or run the other way; further: series mostly up to about 120 µM
Target sequence (P11473 whole entry, looked up): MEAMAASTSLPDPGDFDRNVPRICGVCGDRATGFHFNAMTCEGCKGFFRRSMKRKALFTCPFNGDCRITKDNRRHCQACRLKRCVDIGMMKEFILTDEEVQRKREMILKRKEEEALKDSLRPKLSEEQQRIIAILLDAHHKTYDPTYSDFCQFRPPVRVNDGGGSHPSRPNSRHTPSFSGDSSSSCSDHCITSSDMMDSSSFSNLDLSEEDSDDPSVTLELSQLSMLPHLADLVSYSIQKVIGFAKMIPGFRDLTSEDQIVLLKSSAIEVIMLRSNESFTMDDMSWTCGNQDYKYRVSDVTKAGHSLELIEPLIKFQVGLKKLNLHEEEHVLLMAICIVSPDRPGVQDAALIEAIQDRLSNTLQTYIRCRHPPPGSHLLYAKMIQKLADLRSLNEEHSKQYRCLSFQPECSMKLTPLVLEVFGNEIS
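VDR–SRC2-3 interaction, FP format. Cmpds 23 nl via pintool, brief spin, 2 h ambient incubation.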
Starred values were filed as active, the others as inactive; ? = inconclusive; & = joins results of further samples. On the % scale 0 is the no-effect control and ±100 the full control effect; potency means the concentration at half of the fitted maximal effect. This is a subset; count on the stated rates, not on these rows.

[1] CN1c2ccccc2-c2nc3ccccc3n2C1c1cccs1 (configuration not stated)
  VDR inhibitor: -2%

[2] O=C(CNS(=O)(=O)c1ccc(F)c(Cl)c1)N1CCCCCC1
  VDR inhibitor: 8%

[3] CC1CC(NC(=O)c2c(O)nc3ccccn3c2=O)CC(C)(C)C1 (configuration not stated)
  VDR inhibitor: 8%

[4] CCc1nn(Cc2ccc(Cl)cc2)c(=O)c2cc3cc(C)ccc3n12
  VDR inhibitor: 16%

[5] COc1ccc(CCNC(=O)CC(c2ccccc2)c2cccc(C)c2O)cc1OC (configuration not stated)
  VDR inhibitor: -1%

[6] O=C(NC1CCCC1)c1cc2c(=O)n3ccccc3nc2s1
  VDR inhibitor: -22%

[7] Cc1cccc(NC(=S)N(CCCN2CCOCC2)C(C)c2cc3ccccc3o2)c1 (configuration not stated)
  VDR inhibitor: -9%

[8] COc1ccccc1OCC(=O)N(Cc1nc(-c2ccccc2)no1)C(C)C
  VDR inhibitor: 1%

[9] Cc1[nH]c(C)c(S(=O)(=O)NCCc2ccccc2)c1C(=O)N1CCCCC1
  VDR inhibitor: -29%

[10] O=C1CC(c2ccncc2)c2cc3c(cc2N1)OCO3 (configuration not stated)
  VDR inhibitor: 4%

[11] C/C(=N\NC(N)=O)c1ccc(-n2ccnc2)cc1
  VDR inhibitor: 14%

[12] CCOc1ccc(NC(=O)CN(C)C(=O)CC(NC(=O)c2ccccc2)c2ccccc2)cc1OCC (configuration not stated)
  VDR inhibitor: 7%

[13] O=c1[nH]cnc2c1C(c1ccccc1[N+](=O)[O-])c1c(nc[nH]c1=O)O2
  VDR inhibitor: -14%

[14] CCOC(=O)CC(=O)c1sc2c(c1N)c(=O)[nH]c(=O)n2-c1ccc(OC)cc1
  VDR inhibitor: ?

[15] CCOC(=O)C1=C(C)NC(C)=C(C(=O)OCC)C1C(=O)OCC(=O)N1c2ccccc2CC1C (configuration not stated)
  VDR inhibitor: 10%&4%

[16] C[C@H](NC(=O)c1ccco1)C(=O)Nc1nc(-c2ccccn2)cs1
  VDR inhibitor: -10%

[17] CCOC(=O)C1=C(CS(=O)(=O)c2ccccc2)NC(=O)NC1c1cc(OC)c(O)c(OC)c1 (configuration not stated)
  VDR inhibitor: -2%

[18] CCOC(=O)CSc1nc(=O)n2ccccc2n1
  VDR inhibitor: 22%

[19] O=C1C=CC2(C=C1)O[C@H](Cc1ccccc1)[C@@H](Cc1ccccc1)O2
  VDR inhibitor: 14µM*

[20] COc1ccc(Cc2nnc(SCC(=O)c3ccc4c(c3)OCO4)o2)cc1
  VDR inhibitor: 10%

[21] CCOc1cccc(C(=O)NC(=S)Nc2cccnc2)c1
  VDR inhibitor: -10%

[22] C=CCn1c(=S)[nH]c2nc3c(cc2c1=O)COC(C)(C)C3
  VDR inhibitor: 29%

[23] Cc1ccc(NC(=O)CN2C(=O)S/C(=C\c3cccn3-c3cccc(C(=O)O)c3)C2=O)c(C)c1
  VDR inhibitor: -10%

[24] Cc1csc(=O)n1CCC(=O)OCC(=O)Nc1cc(Cl)ccc1[N+](=O)[O-]
  VDR inhibitor: -9%

[25] Cc1cc(=O)oc2cc(OC(C)C(=O)NCCCN3CCCC3=O)c(Cl)cc12 (configuration not stated)
  VDR inhibitor: -4%

Arranged by count of non-hydrogen atoms (lowest first): some entries from above
[6] O=C(NC1CCCC1)c1cc2c(=O)n3ccccc3nc2s1
  VDR inhibitor: -22%

[19] O=C1C=CC2(C=C1)O[C@H](Cc1ccccc1)[C@@H](Cc1ccccc1)O2
  VDR inhibitor: 14µM*

[20] COc1ccc(Cc2nnc(SCC(=O)c3ccc4c(c3)OCO4)o2)cc1
  VDR inhibitor: 10%

[7] Cc1cccc(NC(=S)N(CCCN2CCOCC2)C(C)c2cc3ccccc3o2)c1 (configuration not stated)
  VDR inhibitor: -9%

[15] CCOC(=O)C1=C(C)NC(C)=C(C(=O)OCC)C1C(=O)OCC(=O)N1c2ccccc2CC1C (configuration not stated)
  VDR inhibitor: 10%&4%

(list continues)
[26] CCn1nc(C)c(/C=N/NC(=O)Cn2nccc2C)c1C
  VDR inhibitor: 1%

[27] COc1cc([C@@H]2CC=C(C(=O)O)[C@H](c3ccccc3)N2S(=O)(=O)c2ccc(C)cc2)cc(OC)c1OC
  VDR inhibitor: -11%

[28] COc1cc(C)c(Cl)cc1S(=O)(=O)NCCN1CCOCC1
  VDR inhibitor: -2%

[29] Brc1ccc(-n2cccc2/C=N/n2cnnc2)cc1
  VDR inhibitor: 2%

[30] c1ccc(C(c2c[nH]c3ccccc23)c2c[nH]c3ccccc23)nc1
  VDR inhibitor: 14%

[31] O=c1[nH]c(=O)n([C@H]2C[C@H](O)[C@@H](CO)O2)cc1I
  VDR inhibitor: 13%

[32] COc1cccc(NC(=O)C2C3C=CC4(O3)C2C(=O)N(C(C)C)C4C(=O)NC2CCCCC2C)c1 (configuration not stated)
  VDR inhibitor: 2%

[33] CSc1nc(N)c(C(=O)NC2CCCCC2)s1
  VDR inhibitor: -9%

[34] O=C1CN(C(=O)NCC(=O)N[C@@H](Cc2ccccc2)C(=O)O)c2ccccc2N1
  VDR inhibitor: -14%

[35] COC(=O)c1ccc(CSCc2ccc(C(=O)OC)o2)o1
  VDR inhibitor: -24%

[36] Cc1nc2nc(SCC(=O)NCc3ccco3)nn2c(C)c1Cc1ccccc1
  VDR inhibitor: ?

[37] COc1ccc(NC(=O)CN2CCN(c3ccccc3F)CC2)c(OC)c1
  VDR inhibitor: 13%

[38] O=C(Nc1ccccc1F)c1ccc(COc2ccc(Cl)cc2Cl)o1
  VDR inhibitor: 11%

[39] COc1ccc(NC(=O)CSc2cn(CC(=O)N3CCOCC3)c3ccccc23)cc1OC
  VDR inhibitor: 7%

[40] CC(C)CN(C(=O)COC(=O)c1cccnc1Cl)c1c(N)n(Cc2ccccc2)c(=O)[nH]c1=O
  VDR inhibitor: -24%

[41] Cc1csc(=O)n1CCC(=O)OCc1nnc(-c2ccccc2)o1
  VDR inhibitor: 7%

[42] CCOC(=O)c1c(Nc2ccc(C)c(C)c2)nnc(-c2ccccc2)c1-c1ccccc1
  VDR inhibitor: -11%

[43] COc1ccccc1-n1cc2ccc([N+](=O)[O-])cc2n1
  VDR inhibitor: -10%

[44] O=c1cc(NCc2ccccc2)[nH]c(=O)[nH]1
  VDR inhibitor: -2%

[45] COc1ccc(CN(C)CC(=O)Nc2ccccc2C(F)(F)F)cc1
  VDR inhibitor: 20%

[46] CC(C)[C@H](NC(=O)c1ccccc1Cl)C(=O)OCc1cc([N+](=O)[O-])cc2c1OCOC2
  VDR inhibitor: ?

[47] COc1cc(NC(=O)Cn2c(=O)oc3cc(S(=O)(=O)N4CCCCCC4)ccc32)cc(OC)c1
  VDR inhibitor: 10%

[48] O=C(Cn1ncc(Cl)c(Cl)c1=O)NC1CCCCC1
  VDR inhibitor: -1%

[49] O=C(Nc1ccccc1N1CCCCC1)C1CCN(S(=O)(=O)c2cccc(C(F)(F)F)c2)CC1
  VDR inhibitor: -5%

[50] O=C(NCc1cccs1)c1cnc(Cl)c(Cl)c1
  VDR inhibitor: 9%

[51] O=C1CN(C(=O)COC(=O)c2ccc(C(F)(F)F)cc2)c2ccccc2N1
  VDR inhibitor: 17%

[52] Cn1c(C(=O)NCc2ccc(Cl)cc2)cc2c(=O)n(C)c3ccccc3c21
  VDR inhibitor: -3%

[53] COc1cc(/C=C(/NC(C)=O)C(=O)O)cc(Cl)c1OCc1ccc(Br)cc1
  VDR inhibitor: -5%

[54] Cc1cc(C(=O)Nc2ccccc2Cc2ccccc2)no1
  VDR inhibitor: -7%

[55] CCOC(=O)Cn1c(=O)oc2cc(S(=O)(=O)N3CCN(c4ccccc4OC)CC3)ccc21
  VDR inhibitor: 8%

[56] O=C(c1ccccc1F)N(NC(=O)C(O)(c1ccccc1)c1ccccc1)c1ccccc1
  VDR inhibitor: -10%

[57] Cc1ccc(S(=O)(=O)N2CCN(C(=O)CCOc3ccccc3C)CC2)cc1C
  VDR inhibitor: -25%

[58] CCOc1ccccc1N1CC(C(=O)N2CCN(Cc3ccc(C#N)cc3)CC2)CC1=O (configuration not stated)
  VDR inhibitor: 12%

[59] COc1ccc(-c2noc(N3CCC(C(=O)Nc4ccc(C)c(F)c4)CC3)n2)cc1OC
  VDR inhibitor: -5%

[60] Cc1[nH]c(/C=C2\C(=O)Nc3ccc(S(=O)(=O)N(C)c4cccc(Cl)c4)cc32)c(C)c1C(=O)N1CCN(C)CC1
  VDR inhibitor: 1%

[61] CC(=O)NC(C1C(=O)CC(C)(C)CC1=O)(C(F)(F)F)C(F)(F)F
  VDR inhibitor: -1%

[62] Cc1ccc2nsnc2c1NC(=O)CCc1ccccc1
  VDR inhibitor: -21%

[63] Cc1cnc(C(=O)OCC(=O)Nc2ccc3c(c2)OCCO3)cn1
  VDR inhibitor: 1%

[64] C/C(CC(=O)NC1CCCCC1)=N\NC(=O)c1ccccc1C
  VDR inhibitor: -6%

[65] CCCn1nc(NC(=O)c2cccs2)c2cc3cc(OC)ccc3nc21
  VDR inhibitor: -2%

[66] O=C(CCC(=O)Nc1ccc(Cl)cc1)N/N=C/c1ccc2c(c1)OCO2
  VDR inhibitor: -6%

[67] CC(C)S(=O)(=O)N1CCN(c2nc(-c3cccs3)nc3ccccc23)CC1
  VDR inhibitor: 0%

[68] Cc1[nH]nc(N2CCCCC2)c1[N+](=O)[O-]
  VDR inhibitor: -13%

[69] CC(C)COc1ccc(C(=O)Nc2scc(-c3ccc(Br)cc3)c2C(=O)OC(C)C)cc1
  VDR inhibitor: 0%

[70] O=C(CNC(=O)C1CCCCC1)OCn1nnc2ccccc2c1=O
  VDR inhibitor: ?

[71] CC1(C)SC2[C@@H](N=CN3CCCCCC3)C(=O)N2[C@H]1C(=O)O (some centres not stated)
  VDR inhibitor: -9%

[72] Cc1csc2ncc(C(=O)NCc3ccccn3)c(=O)n12
  VDR inhibitor: -9%

[73] CN1CCN(S(=O)(=O)c2ccc(NC(=S)NC(=O)c3ccccc3)cc2)CC1
  VDR inhibitor: -2%

[74] COc1cc(NC(=O)COC(C)=O)cc(OC)c1OC
  VDR inhibitor: -5%

[75] COC(=O)c1c(NC(=O)/C(C#N)=C/c2ccc(OC)cc2)sc2c1C(C(=O)OC)CC2 (configuration not stated)
  VDR inhibitor: -19%

Entries by screen from above.
Entries 61–70 in VDR inhibitor: -1%, -21%, 1%, -6%, -2%, -6%, 0%, -13%, 0%, ?

(continued)
[76] N#Cc1ccc(COC(=O)c2ccc3c(c2)OCO3)cc1
  VDR inhibitor: 31%

[77] O=C(CCc1nc2ccccc2[nH]1)NC1CCCCC1
  VDR inhibitor: -15%

[78] Cc1cc(C)c(S(=O)(=O)N/N=C/c2ccc3c(c2)OCO3)c(C)c1
  VDR inhibitor: 10%

[79] C/C=C\C(=O)Nc1cccc(C2=NOC3(C2)C[C@@H](C(N)=O)N(C(=O)C2(C)CC2)C3)c1 (some centres not stated)
  VDR inhibitor: -4%

[80] CCOC(=O)c1c(NC(=O)c2cc(-c3ccccc3OC)on2)sc(C)c1C
  VDR inhibitor: 79µM*

[81] CC(C)c1ccc(/C=N/Nc2ccc(C(=O)O)cc2)cc1
  VDR inhibitor: -1%

[82] C=CCOC(=O)C1=C[C@H](c2cn(C(C)=O)c3ccccc23)C[C@H](OCc2ccc(CO)cc2)O1
  VDR inhibitor: -9%

[83] COc1ccccc1CN1CC2(CCN(C(=O)c3cc(C(F)(F)F)cc(C(F)(F)F)c3)CC2)C1
  VDR inhibitor: -4%

[84] CCOc1ccccc1CNC(=O)C1=C(C)C(=O)OC12CCN(C(C)=O)CC2
  VDR inhibitor: 5%

[85] COc1ccc(CNC(=S)Nc2cccc(F)c2)cc1
  VDR inhibitor: -5%

[86] O=S(=O)(Nc1ccc(Cl)c(C(F)(F)F)c1)c1cnc[nH]1
  VDR inhibitor: -6%

[87] O=C1c2ccccc2-c2c1cccc2C(=O)N1CCN(C(=O)c2ccco2)CC1
  VDR inhibitor: -20%

[88] Cc1cc(Cl)c(OCCCn2cncn2)c(Br)c1
  VDR inhibitor: 0%

[89] CN(CCOc1ccc(Cl)cc1)CC(=O)Nc1ccc(OC(F)(F)F)cc1
  VDR inhibitor: 12%

[90] C=CCn1c(=N)n(CC(=O)c2cccc([N+](=O)[O-])c2)c2ccccc21
  VDR inhibitor: 1%

[91] CCOC(=O)CN1C(=O)N[C@@H](c2ccco2)C(C(C)=O)=C1C
  VDR inhibitor: 1%

[92] O=C(O)c1cccc([N+](=O)[O-])c1C(=O)Nc1ccc2ccccc2c1
  VDR inhibitor: -7%

[93] O=C(Nc1cccc(C(F)(F)F)c1)c1cc[n+]([O-])cc1
  VDR inhibitor: -5%

[94] COc1cc2c(=O)c(S(=O)(=O)c3ccc(C(C)C)cc3)cn(Cc3ccccc3C)c2cc1OC
  VDR inhibitor: -16%

[95] O=C(Nc1cccc2ncccc12)c1cccnc1
  VDR inhibitor: 18%

[96] Nc1nc(SCC(=O)N2CCCC2)[nH]c(=O)c1NC(=O)c1cccs1
  VDR inhibitor: -4%

[97] O=S1(=O)CC(O)C(Nc2ccc(Cl)cc2)C1 (configuration not stated)
  VDR inhibitor: -22%

[98] COc1ccc(-n2cnnc2SCC(=O)Nc2cc(C)on2)cc1
  VDR inhibitor: -4%

[99] CCCc1cc(=O)oc2c3c(cc(OCC(=O)N[C@@H](CSC)C(=O)O)c12)OC(C)(C)CC3
  VDR inhibitor: -13%

[100] O=C1C(=C(O)c2ccccc2)C(=O)c2ccccc21
  VDR inhibitor: -1%

Four entries from above, with tabs.
item	SMILES	VDR inhibitor
70	O=C(CNC(=O)C1CCCCC1)OCn1nnc2ccccc2c1=O	?
71	CC1(C)SC2[C@@H](N=CN3CCCCCC3)C(=O)N2[C@H]1C(=O)O (some centres not stated)	-9%
72	Cc1csc2ncc(C(=O)NCc3ccccn3)c(=O)n12	-9%
73	CN1CCN(S(=O)(=O)c2ccc(NC(=S)NC(=O)c3ccccc3)cc2)CC1	-2%
